UCH37 DUB inh = blocks the human deubiquitinase UCH37; Q9Y5K5; purified proteasome/UCH37, Ub-AMC cleavage fluorescence; inhibition, % (concentration not given with the values); 0.33% of 330,000 active;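 active = mean of two replicates above 20%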;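 note: 0% = compound-free wells with enzyme and 100% = wells lacking proteasome; stock transfer was 100 nL into about 20 µL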
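Material: Human UCH37 enzyme supplied as purified proteasome complex | Schedule: 30 min compound-proteasome preincubation then 25 min substrate reaction, room temperature | Detection: AMC fluorescence from Ub-AMC cleavage, excitation 355 nm, emission 460 nm | Benchmarks: Wells without proteasome as full block, compound-free enzyme plus substrate as uninhibited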
Ecoli rRNA inh = inhibits bacterial ribosomal RNA function over humanized ribosomes. GFP signal change (wild-type ribosome), % (no concentration beside the values). 1.6% of 350,000 active. E. coli WT GFP vs humanized-ribosome RFP mutants, fluorescence, 24 h; active compounds read low; DMSO median 0, no signal -100;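 active = significant combined selectivity score with lowered wild-type GFP, culture density cut under 30%, mutant RFP and density less affected; inactive = any of these conditions unmet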; note: one replicate is shown; some compounds called inactive have numbers as strong as hits
ALR H2O2 inh = human ALR oxidase inhibition via reduced H2O2. P55789. purified ALR, DTT oxidation, H2O2 HRP-luminol luminescence. inhibition, % (test concentration not listed). 3.8% of 290,000 active. AID 485317;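 active = mean and each replicate at 75% or more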;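 note: stock transfer was 7.5 nL into about 7.5 µL; 0% = neutral wells and 100% = wells with inactivated enzyme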
Target sequence (P55789 whole entry, looked up): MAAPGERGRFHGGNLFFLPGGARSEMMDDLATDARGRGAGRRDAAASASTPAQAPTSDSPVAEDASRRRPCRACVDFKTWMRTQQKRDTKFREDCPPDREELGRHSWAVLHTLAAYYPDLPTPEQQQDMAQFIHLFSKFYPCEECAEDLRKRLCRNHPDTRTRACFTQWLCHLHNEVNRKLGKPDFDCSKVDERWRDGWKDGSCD
Ecoli growth = inhibitors of Escherichia coli growth; AID 1053175; 0.21% of 330,000 active; OD600 absorbance (no concentration beside the values); OD600, 23 h; active compounds read low;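 active = OD600 absorbance below the run mean of sample wells minus 3.6 SD, in any replicate, cut at about 0.56 in these data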;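 note: stock transfer was 300 nL into about 60 µL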
B2AR ag = activates human beta-2 adrenergic receptor causing internalization; response, % (test concentration not listed); 0.43% of 340,000 active; Am2.2-beta2AR cells, FAP receptor internalization, flow cytometry; reference of the scale not given here; AID 504454;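 active = response above a set limit, near 3 SD of response in nonfluorescent compounds, cut at about 42% in these data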;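 note: stock transfer was 100 nL into about 11 µL; a reference agonist was the positive control; negative values mostly stem from fluorescent compounds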
FGF22 binding = binders of recombinant human FGF22 by thermal shift; Q9HCT0; SYPRO orange fluorescence; percent of sucrose octasulfate shift, DMSO zero; AID 651658; 1.5% of 340,000 active; calls only at 9.99 µM;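 active = melting point raised past a set limit in the mean and every replicate; three in four hits are not shown here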
Target sequence (Q9HCT0 whole entry, looked up): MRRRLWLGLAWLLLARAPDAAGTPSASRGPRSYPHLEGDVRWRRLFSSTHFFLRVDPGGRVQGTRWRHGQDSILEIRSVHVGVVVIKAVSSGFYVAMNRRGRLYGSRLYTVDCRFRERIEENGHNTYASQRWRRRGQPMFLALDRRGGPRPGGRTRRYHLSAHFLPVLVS
HNF4A DNA FP = change in binding of human HNF4 alpha to DNA; 0.3% of 360,000 active; activity change, % at 10 µM; HNF4a-FITC DNA binding, fluorescence polarization, 1 h; in the data active = activity change above about 30%, passing the limit was not always enough;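 note: controls were the assay level and a saturating level of protein; the project sought stronger binding though the title names inhibitors; some compounds called inactive have numbers as strong as hits; positive values seem to mean higher polarization but the record does not say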
Target sequence (P41235 whole entry, looked up): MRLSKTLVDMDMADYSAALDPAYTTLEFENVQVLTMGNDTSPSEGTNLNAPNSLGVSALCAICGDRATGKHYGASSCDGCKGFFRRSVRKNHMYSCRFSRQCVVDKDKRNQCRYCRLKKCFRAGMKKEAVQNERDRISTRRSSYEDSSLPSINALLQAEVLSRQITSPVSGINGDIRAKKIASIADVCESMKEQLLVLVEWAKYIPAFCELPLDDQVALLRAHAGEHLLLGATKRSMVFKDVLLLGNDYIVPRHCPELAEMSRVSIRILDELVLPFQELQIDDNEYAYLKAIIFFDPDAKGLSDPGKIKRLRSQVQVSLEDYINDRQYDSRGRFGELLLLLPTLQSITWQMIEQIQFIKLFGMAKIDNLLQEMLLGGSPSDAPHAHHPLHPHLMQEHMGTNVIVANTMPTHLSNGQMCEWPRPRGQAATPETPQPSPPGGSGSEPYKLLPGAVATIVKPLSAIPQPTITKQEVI
Ecoli rRNA inh OD600 = also measured in Ecoli rRNA inh; calls as there; OD600 change, %; measured here: OD600 growth;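 optical density of the mix in the first replicate; 0 = DMSO median and -100 = no signal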
Ecoli rRNA inh RFP = second read-out of Ecoli rRNA inh, no call of its own (marks repeat the call); RFP signal change, %; measured here: RFP humanized mutant strains;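 first replicate; 0 = DMSO median and -100 = no signal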
An asterisk follows results filed as active; i = inactive; . = not tested or not shown.

no.	Compound	UCH37 DUB inh	Ecoli rRNA inh	Ecoli rRNA inh OD600	Ecoli rRNA inh RFP	ALR H2O2 inh	Ecoli growth	B2AR ag	FGF22 binding	HNF4A DNA FP
1	COc1ccc(-c2nnn(CC(=O)N(Cc3ccc(F)cc3)C(C(=O)NC3CCCC3)c3ccc(F)cc3)n2)cc1 (stereo not drawn)	1.1	.	.	.	.	0.71	9	.	-2.4
2	CC(C)(C)C(=O)NC1CCN(S(=O)(=O)c2cccc(C(F)(F)F)c2)CC1	0.8	.	.	.	-4	0.67	2	.	0.0
3	CC(NC(=O)CN1CCN(S(=O)(=O)c2ccc(Br)cc2)CC1)c1ccccc1 (stereo not drawn)	1.4	-12	-19	4.1	-2	0.69	1	.	6.0
4	O=C(CN1CCN(S(=O)(=O)c2ccccc2F)CC1)NC1CCCC1	1.9	4	-9	-2.6	-16	0.68	0	.	4.8
5	O=S1(=O)CC(N2CCN(c3ccccn3)CC2)CN1Cc1ccc(F)cc1 (stereo not drawn)	.	1	1	-2.1	.	.	.	i	3.3
6	O=C(Nc1ccccn1)C1CCN(C(=O)c2ccc(F)cc2)CC1	-1.8	13	19	0.8	.	0.64	-4	i	-3.5
7	CSc1ccccc1NC(=O)Nc1cccc2ccccc12	3.2	11	4	-0.3	-9	0.73	-7	i	-3.9
8	Cc1nc2c(C(=O)NCCc3ccccc3)c[nH]n2c(=O)c1Cl	-0.8	-47	-52	6.1	3	0.74	4	i	-2.2
9	CC(C)C(NC(=O)C1CCC(C(C)(C)C)CC1)C(=O)NCCCN1CCCCC1 (stereo not drawn)	1.5	3	-2	4.0	-3	0.67	-1	i	-3.9
10	O=C1NC2CCc3nc4ccccc4c(=O)n3C2=Nc2ccccc21 (stereo not drawn)	-0.1	.	.	.	-6	0.77	4	i	-0.2
11	O=C(N/N=C/C=C/c1ccccc1[N+](=O)[O-])c1cccs1	.	10	27	0.8	.	.	-20	i	0.4
12	O=C(O)CC(Cn1cnnn1)c1ccccc1 (stereo not drawn)	3.8	3	3	-0.8	-4	0.73	5	i	-0.7
13	COc1ccc(CN2CCNC(=O)C2CC(=O)NCc2cn3ccc(C)cc3n2)c(OC)c1 (stereo not drawn)	1.0	-1	4	1.8	-5	0.73	10	i	1.2
14	Cc1c(NC(=O)c2ccc([N+](=O)[O-])o2)cccc1-c1nc2ncccc2o1	5.8	-24*	14*	1.1*	-22	0.7	26	i	4.7
15	Fc1ccc(-c2nc3ccncc3[nH]2)cc1	1.2	.	.	.	2	0.65	-7	.	4.5
16	O=c1/c(=C\c2cccnc2)sc2nc3ccccc3n12	.	28	16	-7.4	.	.	-6	i	5.1
17	CC(NC(=O)c1cc(-c2ccncc2)nc2ccc(Br)cc12)C1CCCO1 (stereo not drawn)	0.4	-15	-11	-1.9	-13	0.67	-6	i	3.4
18	CSc1cccc(NC(=O)C(C)C)c1	1.8	16	11	3.0	-1	0.67	-8	i	-1.8
19	Cc1cc(C)n2c(=O)c3ccc(Cl)cc3nc2c1C#N	-43	4	-2	16	-5	0.67	-8	i	3.1
20	CCC(C)(C)C1CCC(=NNC(=S)Nc2ccccc2)CC1 (stereo not drawn)	0.4	2	-3	-1.2	0	0.71	1	i	6.0
21	Cc1c(Cl)cccc1-c1ccc(/C=N/n2cnnc2)o1	.	.	.	.	-1	.	-4	.	5.4
22	C/C(=N/OC(=O)CC(C)C)c1cc(-c2ccc(Cl)cc2)no1	.	11	6	-4.2	.	.	2	i	-1.5
23	CC(C)(O)C(=O)NNC(=S)NCc1ccco1	0.4	10	12	0.7	0	0.72	-1	i	-2.7
24	Cc1cc(=O)c(C(=O)c2ccccc2)c(C)o1	2.1	5	8	0.3	3	0.63	-8	i	-3.8
25	C[C@H]1O[C@@H](O[C@H]2CC[C@@]3(C)C(CC[C@]4(C)C3C=C[C@]35OC[C@@]6(CCC(C)(C)C[C@H]63)[C@@H](O)C[C@]54C)[C@]2(C)CO)[C@H](O)[C@@H](O[C@@H]2O[C@H](CO)[C@@H](O)[C@H](O)[C@H]2O)[C@H]1O (stereo partly drawn)	-4.1	-2	4	16	-6	.	-5	i	-3.3
26	COc1ccc(C(=O)OC(C)C(=O)NC2CCCC2)cc1S(=O)(=O)N1CCOCC1 (stereo not drawn)	5.0	.	.	.	0	0.66	2	i	4.3
27	O=C(Nc1ccccc1[N+](=O)[O-])C1=C(O)CCn2c1nc1ccccc12	5.5	.	.	.	1	0.67	-13	.	-4.8
28	Cc1ccc(C(C(=O)NCc2ccco2)N(C(=O)Cc2cccs2)c2cccnc2)cc1 (stereo not drawn)	4.7	10	19	-0.1	0	0.7	-10	i	2.6
29	Cc1c(NC(=O)COc2ccccc2Cl)c(=O)n(-c2ccccc2)n1C	-1.2	13	14	0.1	-1	0.7	-3	i	3.6
30	Cc1onc(C(=O)N2CCC(C(N)=O)CC2)c1-c1ccccc1Cl	-1.6	.	.	.	-3	0.71	0	.	-2.0
31	COc1nnc(OC)c2ccccc12	2.1	.	.	.	-5	0.69	0	.	3.8
32	OCCC1CN(Cc2cccn2-c2cccnc2)CCN1Cc1ccccc1 (stereo not drawn)	0.1	26	20	2.7	3	0.69	-7	i	0.9
33	Cc1c(C(=O)OC(C)C)sc(NC(=O)c2cccnc2)c1C#N	2.2	.	.	.	-16	0.67	19	.	18
34	CC(C)C(=O)N=C1NC(=O)CS1	1.6	15	11	2.7	-11	0.69	-2	i	-1.8
35	COc1ccc(N(C(C)C(=O)N/N=C(\C)C(C)(C)C)S(C)(=O)=O)cc1 (stereo not drawn)	.	8	5	-2.7	4	.	-8	i	7.9
36	CC(C)[C@@H]1Cc2[nH]n(C)c(=O)c2[C@H](c2ccc(Cl)cc2)O1	.	18	2	1.4	.	.	.	i	-0.4
37	O=C1C2C(c3ccccc3)C=CC(c3ccccc3)C2C(=O)N1c1ccccn1 (stereo not drawn)	5.1	-34	-34	-4.0	-5	0.71	-5	i	-0.9
38	COc1ccc(C(CNC(=O)c2ccc(C)o2)N2CCOCC2)cc1 (stereo not drawn)	-0.5	1	8	0.7	-2	0.66	2	i	-3.8
39	CCN(Cc1nc2ccccc2c(=O)[nH]1)Cc1cc(=O)oc2cc(C)c(C)cc12	1.9	.	.	.	6	0.67	-1	.	1.5
40	O=C(c1c[nH]c(C(=O)C(Cl)(Cl)Cl)c1)c1ccc(F)cc1Cl	2.7	-35*	-17*	0.5*	69	0.66	40	i	0.8
41	COc1cc(C(=O)OCC2CC(c3ccccc3)=NO2)cc(OC)c1OC (stereo not drawn)	4.7	-14	-20	0.3	-2	0.68	4	i	-3.0
42	CSc1cccc(NC(=O)CCCOc2ccc(Cl)cc2Cl)c1	0.3	.	.	.	-7	0.68	-7	.	0.6
43	CC1(C)CC(=O)c2sc(NC(=O)c3ccco3)nc2C1	8.5	4	2	1.3	50	0.73	-6	i	-0.6
44	CCCN(CCC)CCNS(=O)(=O)c1ccc2c(c1)oc(=O)n2C	2.4	.	.	.	-26	0.66	-2	.	0.5
45	CCOc1ccc2oc(C(=O)OCC(=O)NC3CC3)c(C)c2c1	-44	13	13	-3.9	.	0.64	-1	i	1.9
46	COc1ccc(C)cc1NC(=O)CN(c1ccccc1)S(C)(=O)=O	4.3	.	.	.	-2	0.7	3	.	4.7
47	Cc1[nH]n(-c2ccccc2)c(=O)c1C=Nc1ccc(S(=O)(=O)N(C)C)cc1	8.3	.	.	.	-1	0.68	-3	.	1.7
48	COCOc1ccc(-c2cc(=O)c3c(OCOC)cc(OCOC)cc3o2)cc1	-113	.	.	.	-8	0.71	.	.	0.9
49	CCSc1nc2ccccc2n1C(=O)c1ccc(S(=O)(=O)N2CCCCC2)cc1	2.2	.	.	.	4	0.72	38	.	0.3
50	COc1ccc(S(=O)(=O)NCCOc2cccc3cccnc23)cc1OC	-0.3	-1	-10	-2.0	.	0.64	3	i	-2.8

Carrying on.
no.	Compound	UCH37 DUB inh	Ecoli rRNA inh	Ecoli rRNA inh OD600	Ecoli rRNA inh RFP	ALR H2O2 inh	Ecoli growth	B2AR ag	FGF22 binding	HNF4A DNA FP
51	Cc1ccc(C(=O)C(C)Oc2ccc3ccc(=O)oc3c2)cc1 (stereo not drawn)	-9.6	-23	-22	-1.5	2	0.69	-5	i	0.2
52	CCn1c(SCC(=O)N2CCC(C(N)=O)(N3CCCCC3)CC2)nnc1-c1ccccc1	17	.	.	.	-1	0.69	-2	.	-2.5
53	CC(=O)c1c(C)[nH]c(C(=O)CSc2nnc(N)s2)c1C	8.1	1	-3	-1.6	29	0.65	7	i	1.9
54	COc1ccc(S(=O)(=O)N2CCCC2c2cccs2)cc1 (stereo not drawn)	4.7	-21	-18	5.8	4	0.64	15	i	2.6
55	COc1ccccc1NC(=O)C1=C(C)Nc2nc(CCCO)nn2C1c1ccc2c(c1)OCO2 (stereo not drawn)	-0.4	.	.	.	4	0.72	10	.	2.2
56	Cc1cccc(C)c1NC(=O)c1c[nH]c2ccccc12	1.1	-8	-13	-2.8	.	0.66	-8	i	2.6
57	CN(C)c1nc(-c2ccccn2)nnc1-c1ccccc1	3.1	.	.	.	-4	0.66	-18	.	1.0
58	Cc1cc[n+](CC(=O)c2ccccc2)c2ccccc12	0.7	22	11	17	25	0.69	-4	i	2.3

Of the compounds above, these have bromine:
no.	Compound	UCH37 DUB inh	Ecoli rRNA inh	Ecoli rRNA inh OD600	Ecoli rRNA inh RFP	ALR H2O2 inh	Ecoli growth	B2AR ag	FGF22 binding	HNF4A DNA FP
3	CC(NC(=O)CN1CCN(S(=O)(=O)c2ccc(Br)cc2)CC1)c1ccccc1 (stereo not drawn)	1.4	-12	-19	4.1	-2	0.69	1	.	6.0
17	CC(NC(=O)c1cc(-c2ccncc2)nc2ccc(Br)cc12)C1CCCO1 (stereo not drawn)	0.4	-15	-11	-1.9	-13	0.67	-6	i	3.4

Part of the list above, with each value named.
#43 CC1(C)CC(=O)c2sc(NC(=O)c3ccco3)nc2C1
- UCH37 DUB inh: 8.5
- Ecoli rRNA inh: 4
- Ecoli rRNA inh OD600: 2
- Ecoli rRNA inh RFP: 1.3
- ALR H2O2 inh: 50
- Ecoli growth: 0.73
- B2AR ag: -6
- FGF22 binding: i
- HNF4A DNA FP: -0.6

#44 CCCN(CCC)CCNS(=O)(=O)c1ccc2c(c1)oc(=O)n2C
- UCH37 DUB inh: 2.4
- Ecoli rRNA inh: .
- Ecoli rRNA inh OD600: .
- Ecoli rRNA inh RFP: .
- ALR H2O2 inh: -26
- Ecoli growth: 0.66
- B2AR ag: -2
- FGF22 binding: .
- HNF4A DNA FP: 0.5

From PubChem BioAssay

An excerpt; count on the stated rates, not on these rows.
